Assay outcomes as filed in PubChem BioAssay.
RanGTP-Imp inh: inhibitors of RanGTP-importin-beta interaction, primary screen, biochemical, FRET, CFP-Ran, YFP-importin-beta, homogeneous; actives 1.1% (n = 300,000); inhibition, % (test concentration not listed); cell-free CFP-Ran/YFP-importin-beta FRET ratio; AID 2216;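 active means most replicates above 15%; inconclusive means exactly half above 15%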;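 further: 0% = DMSO wells and 100% = Ran loaded with GDP instead of GTP; wells of about 40 µL received 100 nL stock; the first replicate is given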
LANA-H2A inh: blocks KSHV LANA binding to histone H2A/H2B; Q9QR71; cell-free LANA-H2A/H2B peptide, fluorescence polarization; actives 0.6% (n = 320,000); inhibition, % (concentration not given with the values); in the data active means inhibition mostly above about 10%, no sharp cut-off; inactive means mostly below about 6.7%;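 further: stock transfer was 7.5 nL into about 10 µL; 0% = median of vehicle wells and 100% = median of positive control wells; one replicate is shown; the record names a cut of 25% in any replicate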
HNF4A DNA FP: change in binding of human HNF4 alpha to DNA. activity change, % at 10 µM. AID 1224865. actives 0.3% (n = 360,000). HNF4a-FITC DNA binding, fluorescence polarization, 1 h; in the data active means activity change above about 30%, passing the limit was not always enough;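 further: controls were the assay level and a saturating level of protein; the project sought stronger binding though the title names inhibitors; some compounds called inactive have numbers as strong as hits; positive values seem to mean higher polarization but the record does not say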
Vif A3G: HIV-1 Vif–A3G interaction blockers – biochemical, TR-FRET, GST-Vif 1-94, biotin-A3G peptide, dose response retest, primary screen (AID 1117319); TR-FRET GST-Vif / biotin-A3G peptide binding; higher % means a stronger effect; test concentration not given here; strong numbers were not always called active; inhibition, %; hits with a dose series show IC50 in µM; actives 0.57% (n = 260,000);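 active means above the screen mean plus three standard deviations and confirmed in dose response; inconclusive means results disagree or hit not tested in dose response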;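 further: Vif residues 1-94 fused to GST binding biotinylated APOBEC3G peptide 110-148; 0% = full assay without inhibitor and 100% = GST in place of GST-Vif; retest series ran down from 100 µM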
Calb FLC: affects C. albicans growth with fluconazole. growth inhibition, % (test concentration not listed). actives 0.57% (n = 300,000). C. albicans CaCi-2 (fluconazole-resistant clinical isolate) + fluconazole, Alamar Blue growth, 48 h. AID 1979;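 active means most replicates above 75%; inconclusive means exactly half above 75%; inactive means most below 75%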;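 further: all wells also contain fluconazole at 8 µg/ml as a sub-toxic cotreatment; 0% = median of DMSO wells and 100% = median of geldanamycin control wells; wells of about 8 µL received 7.5 nL stock; the first replicate is given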
ALR H2O2 inh: blocks human ALR sulfhydryl oxidase activity. P55789. purified ALR, DTT oxidation, H2O2 HRP-luminol luminescence. inhibition, % (no concentration beside the values). actives 3.8% (n = 290,000). AID 485317;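 active means mean and each replicate at 75% or more; inconclusive means only one of the two met; inactive means neither met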;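 further: stock transfer was 7.5 nL into about 7.5 µL; 0% = neutral wells and 100% = wells with inactivated enzyme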
Target sequence (P55789 whole entry, looked up): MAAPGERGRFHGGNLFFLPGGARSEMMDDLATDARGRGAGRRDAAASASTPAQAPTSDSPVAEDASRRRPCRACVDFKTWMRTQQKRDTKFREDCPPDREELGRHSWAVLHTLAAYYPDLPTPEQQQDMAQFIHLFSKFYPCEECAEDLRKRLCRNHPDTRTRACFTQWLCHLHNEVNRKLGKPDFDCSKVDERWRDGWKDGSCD
Beta2AR agonist: agonists of human beta-2 adrenergic receptor inducing internalization; P07550; Am2.2-beta2AR cells, FAP receptor internalization, flow cytometry; reference of the scale not given here; response, % (test concentration not listed); actives 0.43% (n = 340,000); AID 504454;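 active means response above a set limit, near 3 SD of response in nonfluorescent compounds, cut at about 42% in these data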;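 further: stock transfer was 100 nL into about 11 µL; a reference agonist was the positive control; negative values mostly stem from fluorescent compounds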
Target sequence (P07550 whole entry, looked up): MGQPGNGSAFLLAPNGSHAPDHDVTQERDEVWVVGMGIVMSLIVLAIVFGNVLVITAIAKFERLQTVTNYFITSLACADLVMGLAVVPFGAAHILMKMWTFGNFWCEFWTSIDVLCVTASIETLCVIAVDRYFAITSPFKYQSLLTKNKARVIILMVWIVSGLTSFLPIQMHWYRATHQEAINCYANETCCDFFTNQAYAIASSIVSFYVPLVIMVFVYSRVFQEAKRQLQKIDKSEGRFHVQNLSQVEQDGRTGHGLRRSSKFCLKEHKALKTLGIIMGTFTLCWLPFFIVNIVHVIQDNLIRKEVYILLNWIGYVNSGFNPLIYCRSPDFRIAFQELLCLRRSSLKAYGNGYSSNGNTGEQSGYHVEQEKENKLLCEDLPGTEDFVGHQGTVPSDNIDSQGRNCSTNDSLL
* marks the source's active call; other numbers are inactive results; ? = inconclusive; . = not tested or not shown; & = joins results of further samples.

Results follow in this order: RanGTP-Imp inh	LANA-H2A inh	HNF4A DNA FP	Vif A3G	Calb FLC	ALR H2O2 inh	Beta2AR agonist
COc1ccc(C(CNC(=O)c2ccc(-c3cccc(C(F)(F)F)c3)o2)N2CCOCC2)cc1 (centres undefined)
→ .	-6.3	-0.3	3%	6	6	6
CC(=O)N1Cc2ccccc2C(C)CC12CCCCC2 (centres undefined)
→ -3.4	1.0	1.5	5%	-3	33	-10
CC(CCCC(C)(C)O)CC1C2=C(CCCC2=O)OC2=C1C(=O)CCC2 (centres undefined)
→ -1.3	-4.6	-1.8	-3%	?	1	-1
Cc1ccc(NC(=O)CSCC(=O)N(CCC(C)C)c2c(N)n(Cc3ccccc3)c(=O)[nH]c2=O)cc1
→ .	.	-5.4	2%	.	.	-5
Cn1c(SCC(=O)Nc2sc3c(c2C#N)CCC3)nnc1C1COc2ccccc2O1 (centres undefined)
→ -3.7	1.0	-1.0	32%&2%	60	-5	9
CC(C)N=C1NN=C(c2cccs2)CS1
→ 2.4	6.5	2.8	2%	-1	8	-3
Cc1onc(-c2ccccc2)c1C(=O)N=C(N)c1ccc(C(F)(F)F)cc1
→ -0.5	1.7	-0.9	-2%	2	7	-1
CCc1ccc(NC(=O)[C@H](C)NC(=O)C2CCN(C(=O)[C@@H](N)CC(C)C)CC2)cc1
→ 2.7	-3.3	2.1	-8%	2	-18	1
O=C(CCc1nc2ccccc2c(=O)[nH]1)N1CCN(S(=O)(=O)c2cccc(F)c2)CC1
→ -2.1	0.1	3.9	.	1	-1	7
CCOc1ccc(N2C(=O)c3ccccc3NC2(C)CC)cc1 (centres undefined)
→ .	4.4	0.4	.	.	-21	-7
Nc1nc(Cl)cc(Oc2ccccc2F)n1
→ 2.5	2.0	2.8	9%	-6	-6	2
Cc1ccc(S(=O)(=O)N(CC(=O)NCc2ccco2)Cc2ccc(F)cc2)cc1
→ 11	2.9	-0.2	-1%&26%	15	-3	-4
c1ccc(N2CCN(c3ncnc4scc(-c5cccs5)c34)CC2)cc1
→ .	2.1	1.8	17%	.	20	0
CCOC(=O)CC1C(=O)NCCN1C(=O)COc1ccc(Br)cc1C (centres undefined)
→ 3.0	2.6	3.4	-7%	-2	-1	-5
COc1ccc(CCN2CC(C(=O)OC(C)C(=O)Nc3cccc(Cl)c3)CC2=O)cc1OC (centres undefined)
→ .	.	0.0	2%	.	-5	-1

Single values from the list:
Beta2AR agonist with Cc1onc(-c2ccccc2)c1C(=O)N=C(N)c1ccc(C(F)(F)F)cc1 : -1
ALR H2O2 inh with CCc1ccc(NC(=O)[C@H](C)NC(=O)C2CCN(C(=O)[C@@H](N)CC(C)C)CC2)cc1 : -18
RanGTP-Imp inh with O=C(CCc1nc2ccccc2c(=O)[nH]1)N1CCN(S(=O)(=O)c2cccc(F)c2)CC1 : -2.1
Vif A3G with CC(CCCC(C)(C)O)CC1C2=C(CCCC2=O)OC2=C1C(=O)CCC2 (centres undefined) : -3%
Beta2AR agonist with CC(=O)N1Cc2ccccc2C(C)CC12CCCCC2 (centres undefined) : -10

Continuation.
Results follow in this order: RanGTP-Imp inh	LANA-H2A inh	HNF4A DNA FP	Vif A3G	Calb FLC	ALR H2O2 inh	Beta2AR agonist
O=C(CCCOc1ccc(Cl)cc1Cl)NCCc1nnc2ccccn12
→ 5.3	-2.8	3.1	-1%	-2	-12	-11
COC(CNS(=O)(=O)c1ccc(S(=O)(=O)NC2CC2)cc1)OC
→ -0.4	-1.3	-2.6	.	1	0	1
Cc1cc(C)cc(NC(=O)CN2C(=O)C3CC=CCC3C2=O)c1 (centres undefined)
→ .	0.3	-0.7	-3%	.	-1	2
CC(=O)Nc1ccc(S(=O)(=O)NCC(=O)OCC(=O)NCc2ccc3c(c2)OCO3)cc1
→ .	1.9	-0.8	-1%	.	-4	2
CC(=O)Oc1ccc(/C=N/NC(=O)C2CCCN2S(=O)(=O)c2ccc(Cl)cc2)cc1 (centres undefined)
→ 2.1	-3.4	1.6	5%	-14	100*	-3
COc1cccc(N(CC(=O)N2CCN(c3ccccc3OC)CC2)S(C)(=O)=O)c1
→ 2.7	8.9	1.7	10%	-8	29	-2
CCOC(=O)c1cccc(NC(=O)COc2ccc([N+](=O)[O-])cc2)c1
→ ?	-3.5	5.1	4%	4	-3	4
CC(=O)Cc1nsc(NC(=O)c2ccc(F)cc2)n1
→ -3.0	3.6	1.7	-12%	-2	27	-2
Cc1ccc(N(CC(=O)NC2CCCCC2)S(=O)(=O)c2c(C)noc2C)cc1
→ 4.7	4.4	2.1	.	-7	-2	-4
CC(=O)Nc1nc(C)c(Oc2ccccc2)c(=O)[nH]1
→ 0.8	3.8	1.3	-2%	4	-2	1
COc1cc(C(=O)N2CCN(C(=O)c3ccco3)CC2)cc(OC)c1OC
→ -2.6	5.5	-4.1	-4%	9	.	1
Cc1c(NC(=O)c2ccco2)cccc1-c1nc2cccnc2s1
→ -0.4	7.1	3.8	1%	0	-3	14
COc1ccc(N2C(=O)c3ccccc3C2=O)cc1
→ 2.2	2.9	-5.8	-9%	-4	-13	-7
O=C1CN(C(=O)COC(=O)CCc2ccccc2)c2ccccc2N1
→ .	3.8	0.2	-2%	.	-2	-1
O=c1cc(CNCCCO)c2ccccc2[nH]1
→ -3.1	6.2	-4.0	6%	-4	-6	-10

Continuation.
Results follow in this order: RanGTP-Imp inh	LANA-H2A inh	HNF4A DNA FP	Vif A3G	Calb FLC	ALR H2O2 inh	Beta2AR agonist
CCOC(=O)[C@H]1[C@H]2COc3cc(OC)ccc3[C@@H]2N2C(=O)CN(CCc3c[nH]c4ccccc34)C(=O)[C@@]12C
→ .	1.9	8.1	.	.	-2	0
c1ccc(Cc2nnc(Sc3ccccc3)c3ccccc23)cc1
→ 0.7	-1.5	-0.1	-30%	7	-4	11
COc1cc(NC(=O)Nn2cnnc2)cc(OC)c1OC
→ 0.8	-1.6	0.3	.	13	.	9
Nc1nc2nc(-c3cccs3)cc(C(F)(F)F)n2n1
→ 62*	-0.2	-2.5	-5%	5	-5	1
Cc1ccn2c(=O)nc(SCC(=O)NCc3ccccc3Cl)nc2c1
→ 3.9	1.9	4.2	5%	0	-8	-4
Cc1c([N+](=O)[O-])cc(C(=O)Nc2ccc(NC(=O)c3ccco3)cc2)cc1[N+](=O)[O-]
→ -1.9	-2.4	-1.2	.	-2	0	-2
O=C(c1cc2cc(F)ccc2[nH]1)N1CCc2ccccc2C1
→ -1.9	-1.8	4.0	.	10	18	-7
Cc1ccc(N2C=Nc3ccc(C)c4nc(C)cc2c34)cc1
→ 99*	2.2	-9.6	-1%	7	-9	0
Nc1[nH]ncc1N=Nc1ccc(Cl)cc1
→ ?	-0.2	1.9	-5%	-38	-7	-2
CS(=O)(=O)Nc1ccccc1C(=O)N1CCN(c2ccccc2)CC1
→ 0.0	-4.1	.	26%	8	98*	.
Cn1c(=O)c2c(ncn2CC(O)CNc2ccc(Cl)cc2)n(C)c1=O (centres undefined)
→ 0.8	0.2	-1.2	16%	-3	64	-2
O=C(Nc1ccc(-c2csc(Nc3ccccc3)n2)cc1)c1ccccc1
→ -2.5	4.1	3.5	.	0	43	1
Cc1oc(-c2cc(F)ccc2F)nc1CN(C)Cc1ccc2nccnc2c1
→ 0.7	-1.8	-2.3	5%	-10	-1	-5
O=C(Nc1cccc(F)c1)N1CCN(C/C=C/c2ccccc2)CC1
→ 1.6	3.1	-2.2	5%	-16	-4	3
Cn1cccc1C1NC(=O)c2c(sc3c2CCC(C(C)(C)C)C3)N1 (centres undefined)
→ -1.6	1.4	-0.1	?	-9	33	-13

Next entries
Results follow in this order: RanGTP-Imp inh	LANA-H2A inh	HNF4A DNA FP	Vif A3G	Calb FLC	ALR H2O2 inh	Beta2AR agonist
CCOc1cc2c(cc1OCC)C(c1ccc(OC)cc1)N(c1ccccc1)C(=O)C2 (centres undefined)
→ 1.4	.	4.7	.	23	.	-8
CC(C)NS(=O)(=O)c1ccc(NC(=O)c2cccnc2)cc1
→ -3.1	-1.4	3.9	.	3	-6	1
CC(=O)N1c2ccc(S(=O)(=O)N3CCC(C(=O)Nc4cccc(C)c4C)CC3)cc2CC1C (centres undefined)
→ 4.3	1.8	-0.2	.	2	-1	-7
C/C(=C\C(=O)c1ncc(C(F)(F)F)cc1Cl)N(C)C
→ 0.7	-8.1	0.0	1%	13	.	-2
CC1(C)C(CSc2nc3ccccc3[nH]2)C1(Cl)Cl (centres undefined)
→ 0.0	2.0	7.2	31%	9	-1	-9
O=C(O)[C@H](Cc1ccccc1)N1Cc2ccccc2C1=O
→ -0.6	0.8	4.6	2%	0	-32	-4
Cc1cc(C(=O)NCCc2ccc(S(N)(=O)=O)cc2)c(C)o1
→ -0.1	1.0	0.0	.	-4	.	11
COc1cc(-c2cc(C(=O)Nc3ccc(S(=O)(=O)NCc4ccco4)cc3)c3ccccc3n2)cc(OC)c1OC
→ 1.1	1.5	-0.2	0%	-2	13	13
O=C(Nc1ccccc1C(=O)NC1CC1)c1ccc([N+](=O)[O-])o1
→ .	.	-2.0	13%	.	.	-6
COCCCn1c(-c2ccc(Cl)cc2)n[nH]c1=S
→ -1.2	1.6	3.3	-2%	0	95*	22
O=C(CCC(=O)N1CCc2ccccc2C1)N1CCN(S(=O)(=O)c2ccccc2)CC1
→ -1.3	2.1	-3.8	21%	2	11	-3
O=C(NCC1CCCO1)/C(=C/c1ccccc1)NC(=O)c1ccccc1 (centres undefined)
→ -1.7	-0.1	1.1	0%	?	-5	1
Cc1ccc(NC(=O)CSC2=C(C#N)C(c3ccc4c(c3)OCO4)C3=C(CCCC3=O)N2)c(C)c1 (centres undefined)
→ 11	-1.0	1.6	9%&8%	9	-5	-12
O=C(CCN1CCOCC1)N1CCCC(Nc2cccc(F)c2)C1 (centres undefined)
→ -0.8	-3.0	-4.3	.	0	26	-4
Cc1cc(-n2c(C)cc(C(=O)COc3ccc4ccc(=O)oc4c3)c2C)no1
→ -3.6	-6.1	-3.2	-6%	40	-4	-11

Additional compounds follow:
Results follow in this order: RanGTP-Imp inh	LANA-H2A inh	HNF4A DNA FP	Vif A3G	Calb FLC	ALR H2O2 inh	Beta2AR agonist
COc1cc(OC)c(-c2oc3ccccc3c(=O)c2O)c(OC)c1
→ .	.	4.5	4%	.	.	-12
COc1cccc(N2CCN(S(=O)(=O)c3cn(C)cn3)CC2)c1
→ 5.1	3.3	5.0	.	4	96*	1
CCOC(=O)N1CCC(Nc2nc3ccccc3nc2NS(=O)(=O)c2ccc(Cl)cc2)CC1
→ 19*	0.2	-4.4	30%	6	-4	5
O=C(N/N=C/c1ccc2c(c1)OCO2)c1sc2cc(Cl)ccc2c1Cl
→ -0.7	-8.8	4.5	-1%	-6	-1	-5
COc1ccccc1/C=N/OCC(=O)NCc1ccc2c(c1)OCO2
→ 1.7	2.5	0.3	9%	15	-15	7

Exported with each value named: part of the list above.
> COc1ccc(N2C(=O)c3ccccc3C2=O)cc1
  RanGTP-Imp inh = 2.2 | LANA-H2A inh = 2.9 | HNF4A DNA FP = -5.8 | Vif A3G = -9% | Calb FLC = -4 | ALR H2O2 inh = -13 | Beta2AR agonist = -7

> CC(C)NS(=O)(=O)c1ccc(NC(=O)c2cccnc2)cc1
  RanGTP-Imp inh = -3.1 | LANA-H2A inh = -1.4 | HNF4A DNA FP = 3.9 | Vif A3G = . | Calb FLC = 3 | ALR H2O2 inh = -6 | Beta2AR agonist = 1
